Screening results: PubChem BioAssay, Center for Chemical Genomics, University of Michigan
TAR Tat displ: HIV-1 TAR-Tat binding disruption; HIV-1 TAR RNA, Tat peptide displacement FRET; stronger effect = higher value; z-score (concentration not given with the values); actives 0.6% (n = 100,000); AID 1259389;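 note: score is relative to mean and SD of negative controls; some compounds called inactive have numbers as strong as hits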
CDC25B-CDK2 inh: human CDC25B-CDK2/CyclinA binding inhibition; HTRF CDC25B-CDK2/CyclinA binding, anti-His/anti-Flag; stronger effect = higher value; actives 0.72% (n = 94,000); AID 1259370; P30305+P24941; z-score (concentration not given with the values);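 note: score is relative to mean and SD of negative controls; strong numbers were not always called active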
* marks the source's active call; other numbers are inactive results; · = not tested or not shown.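 Rule for the calls: active = z-score from 3 up in half or more of its runs; inactive = the rest.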

Each structure is followed by: TAR Tat displ | CDC25B-CDK2 inh
- Cc1cc2n(n1)CCC(=O)N2C(C)C(=O)NCCC(C)C (stereo not drawn)
  1.5 | ·
- Cc1cc(O)ccc1N1CC(O)=C(c2nc3ccccc3s2)C1=N
  -0.09 | -2.3
- CC1CCN(C(=O)c2noc3c2CCc2sccc2-3)CC1
  0.71 | ·
- Cc1nn(CC(=O)N2CCN(c3ccc(F)cc3)CC2)c(=O)c2cc3sccc3n12
  -0.04 | 0.16
- COc1ccc(C(=O)c2cn(Cc3ccccc3)c3cc4c(cc3c2=O)OCO4)cc1
  2.5 | -1.9
- Cc1cn2c(=O)cc(COC(=O)c3ccc(C(C)(C)C)cc3)nc2s1
  0.06 | ·
- CCCNc1nc(-c2ccccc2Cl)nc2ccccc12
  1.8 | ·
- CCC(C)N1C(=O)N(C)C2NC(=O)NC21 (stereo not drawn)
  1.2 | 0.56
- CC(=O)c1c(C)oc2ccc(N(C(=O)c3ccncc3)S(=O)(=O)c3c(C)cc(C)cc3C)cc12
  · | 0.61
- Cc1ccc(-c2noc(CCC(N)=O)n2)c(=O)n1C(C)C
  1.7 | -2.1

Further results follow:
Each structure is followed by: TAR Tat displ | CDC25B-CDK2 inh
- Cc1cccc(OCC(O)Cn2cnc3ccccc32)c1 (stereo not drawn)
  1.6 | -3.9
- CCOC(=O)C1=C(C)NC2=C(C(=O)CC(C)(C)C2)C1c1cc2c(cc1Cl)OCO2 (stereo not drawn)
  0.92 | -0.67
- Cc1cc(C)nc(SCC(=O)c2ccc(O)cc2O)n1
  0.96 | -0.4
- CC1(C)O[C@@H]2[C@@H](CO[C@@]3(COS(N)(=O)=O)OC(C)(C)O[C@@H]23)O1
  2.9 | ·
- CS(=O)(=NS(=O)(=O)c1cc(S(=O)(=O)c2ccccc2)cs1)c1ccc(Cl)cc1 (stereo not drawn)
  · | 0.02
- Cc1nc2ccccn2c1-c1csc(Nc2ccc(Br)cc2)n1
  2.4 | 0.51
- CCCc1nc(SCc2cc(=O)n3[nH]c(-c4ccccc4)nc3n2)n[nH]1
  1.1 | ·
- CN(C)CCSc1nnc2sc3ccccc3n12
  · | -2.4
- O=C(CSc1nc2c(c(=O)n1-c1ccc(F)cc1)SCC2)N1CCN(c2ccccc2)CC1
  -0.78 | -1.3
- COc1cc(C2C3=C(Nc4nc(N)[nH]c(=O)c42)c2ccccc2C3=O)ccc1O (stereo not drawn)
  5.6* | 2.7

(continued)
Each structure is followed by: TAR Tat displ | CDC25B-CDK2 inh
- COc1c(Cl)cccc1-c1cn2ccc(C)cc2n1
  · | -0.87
- CCOC(=O)c1cc(S(=O)(=O)Nc2cc(OC)cc(OC)c2)cn1C
  2.4 | -1.7
- CN(C(=O)C1CCCN(c2ncnc3c2nc2n3CCCCC2)C1)c1ccccc1Cl (stereo not drawn)
  0.17 | ·
- CSc1cccc(NC(=O)CSc2nc(-c3ccc(Cl)cc3)nc3cc(=O)[nH]n23)c1
  18* | ·
- CC1CN(c2ccc([N+](=O)[O-])cn2)CC(C)O1 (stereo not drawn)
  · | 0.58
- Cc1nc(NCCc2ccc3c(c2)OCO3)c2c3c(sc2n1)CCCC3
  0.54 | ·
- O=C(/C=C/c1ccccc1)NC(NC(=S)Nc1ccc(Br)cc1)C(Cl)(Cl)Cl (stereo not drawn)
  · | -0.63
- COCCCNc1nc(NCCc2cccs2)c2cnn(C)c2n1
  1.6 | ·
- CC(=O)Nc1cccc(OCCCNS(=O)(=O)c2ccc(Oc3cccc(Cl)c3C#N)cc2)c1
  · | 1.6
- Cc1ccc(C)c(NS(=O)(=O)c2c(C)nc3sc4ccccc4n3c2=O)c1
  1.1 | ·

Following part
Each structure is followed by: TAR Tat displ | CDC25B-CDK2 inh
- Cc1ccc(-c2ccc(=O)[nH]n2)cc1S(=O)(=O)N(C)Cc1ccccc1
  0.35 | -1.5
- COCCNc1ncnc2c1c(-c1ccccc1)cn2-c1ccccc1
  · | -0.27
- Cc1cc(-c2ccc(C)c(S(=O)(=O)N(CC(C)C)CC(C)C)c2)on1
  0.95 | ·
- Cc1cc(-c2ccc(=O)[nH]n2)cc(S(=O)(=O)NCc2ccccc2)c1C
  0.38 | ·
- CC1CCN(c2ccc3nnc(CCC(=O)N4CCCC4)n3n2)CC1
  -0.94 | ·
- CC(=O)Nc1c2n(c3ccccc13)CC(C)(C(=O)NC1CCCC1)N(C1CCC(C)CC1)C2=O (stereo not drawn)
  0.91 | ·
- C=CCOc1ccc(/C=C2\C(=O)N(Cc3ccco3)C(C)=C2C(=O)OC)cc1OC
  · | -4.9
- COc1ccc2c(c1)CC(NC(=O)NC1CC1)CO2 (stereo not drawn)
  1.3 | ·
- CC1(C)C(=O)NN(c2cccc(O)c2)C1=O
  1.6 | -0.86
- CCOC(=O)c1sc(SCc2ccccc2)c2c1CC(c1ccc(OC)cc1)CC2=O (stereo not drawn)
  · | -0.82

Entries shown so far that have a carbonyl joined to an NH by a bond outside any ring (7):
Each structure is followed by: TAR Tat displ | CDC25B-CDK2 inh
- Cc1cc2n(n1)CCC(=O)N2C(C)C(=O)NCCC(C)C (stereo not drawn)
  1.5 | ·
- Cc1ccc(-c2noc(CCC(N)=O)n2)c(=O)n1C(C)C
  1.7 | -2.1
- CSc1cccc(NC(=O)CSc2nc(-c3ccc(Cl)cc3)nc3cc(=O)[nH]n23)c1
  18* | ·
- O=C(/C=C/c1ccccc1)NC(NC(=S)Nc1ccc(Br)cc1)C(Cl)(Cl)Cl (stereo not drawn)
  · | -0.63
- CC(=O)Nc1cccc(OCCCNS(=O)(=O)c2ccc(Oc3cccc(Cl)c3C#N)cc2)c1
  · | 1.6
- CC(=O)Nc1c2n(c3ccccc13)CC(C)(C(=O)NC1CCCC1)N(C1CCC(C)CC1)C2=O (stereo not drawn)
  0.91 | ·
- COc1ccc2c(c1)CC(NC(=O)NC1CC1)CO2 (stereo not drawn)
  1.3 | ·

Carrying on:
Each structure is followed by: TAR Tat displ | CDC25B-CDK2 inh
- O=C(CSc1nnc(Cn2c(=O)sc3ccccc32)n1-c1ccccc1)N1CCCCCC1
  · | -0.87
- CC1(C)CC(=O)C2=C(C1)NC(=O)CC2c1cccc(F)c1 (stereo not drawn)
  -0.39 | 0.18
- O=C(CCn1c(=O)[nH]c2ccsc2c1=O)N1CCN(c2ccc(F)cc2)CC1
  · | -1.6
- Cc1c(C(=O)O)sc(=S)n1CCOc1ccccc1
  0.77 | -2
- COc1ccc(N2CCN(c3nc4ccccc4n4c(C)nnc34)CC2)cc1
  2 | -0.82
- COc1ccccc1Oc1ccc(C(F)(F)F)cc1NC(=O)NC(=O)c1ccccc1F
  · | -1.9
- CCCCN(Cc1ccco1)C(=O)C1CCCN(c2ncnc3c2nc2n3CCCCC2)C1 (stereo not drawn)
  0.03 | ·
- Cn1c(=O)n(CC(=O)N2CCCC2)c(=O)c2cc(S(=O)(=O)Nc3ccc(F)c(F)c3)ccc21
  2 | ·
- Cc1cc(N2CCN(c3cccc(Cl)c3)CC2)n2nc(-c3ccco3)nc2n1
  1.1 | ·
- Cc1cc(=O)[nH]c(-n2nc(C)cc2C)n1
  1.7 | -0.38

The results go on.
Each structure is followed by: TAR Tat displ | CDC25B-CDK2 inh
- NC(=O)c1nc(-c2cccc(Br)c2)nc2c1[nH]c(=O)n2-c1ccc(F)cc1
  0.91 | ·
- O=c1c2nnn(Cc3ccccc3F)c2ncn1Cc1ccc(F)cc1
  0.82 | -0.11
- COc1cccc(Nc2nc(NCCCO)nc3c2cnn3C)c1
  0.42 | ·
- C=CCc1ccccc1OCC(O)CN1CCN(c2ccccc2F)CC1 (stereo not drawn)
  · | -0.8
- Cc1cc2n(n1)CCC(=O)N2CC(=O)N1CCN(C2CCCCC2)CC1
  1.7 | ·
- Cn1c(=O)oc2cc(S(=O)(=O)N3CCN(Cc4noc5ccccc45)CC3)ccc21
  2.5 | ·
- CCCC(=O)NCC(c1ccco1)S(=O)(=O)c1cccs1 (stereo not drawn)
  1.3 | ·
- CCCCC(=O)OC1=C(C(=O)c2ccccc2)N(CCC)S(=O)(=O)c2ccccc21
  0.36 | 0.37
- CCc1cc2c3c(c(=O)oc2cc1OCC(=O)OC)CCCC3
  · | -0.39
- CCN(CC)S(=O)(=O)c1cc(-c2ccc(=O)n(C(C)C(=O)c3ccc(C)c(C)c3)n2)ccc1C (stereo not drawn)
  0.09 | 1.4

Going on with the list:
Each structure is followed by: TAR Tat displ | CDC25B-CDK2 inh
- COc1ccc(OC)c(-n2c(N)c(C(=O)N3CCOCC3)sc2=S)c1
  2.4 | ·
- Cc1cc2c(cc3c(SCC(=O)Nc4ccc(F)c(Cl)c4)nncn32)o1
  1.3 | ·
- S=C(NCCCN1CCOCC1)N1CCN(C(=S)NCCCN2CCOCC2)CC1
  · | -2.5
- NC(=O)c1c(NC(=O)C(=O)NCc2ccccc2)sc2c1CCC2
  1.4 | -6.6
- Nc1cnc(Sc2ccccc2)c(C(F)(F)F)c1
  · | -1.3
- CCOC(=O)c1cc(C)nn1-c1nc2ccc(Cl)cc2s1
  · | 0.62
- Cc1cc2c(s1)CCc1cc(C(=O)NC3CC3)sc1-2
  1.3 | ·
- Cc1c(/C=C/c2nc3ccccc3c(=O)n2CCCO)c2ccccc2n1C
  -1.5 | -3
- Clc1ccc(-c2csc(N/N=C\c3ccn[nH]3)n2)cc1
  · | -2.2
- Fc1ccc(Cc2nnc(-c3ccccc3)o2)cc1
  0.98 | -1.4

Remaining list, next part:
smiles | TAR Tat displ | CDC25B-CDK2 inh
Cc1nn(Cc2nnc(SCC(=O)C(C)(C)C)o2)c(C)c1Br | · | -0.82
COc1cccc(Nc2nc3ccccc3n3nnnc23)c1 | 1.2 | -1.6
Cc1cc(=O)[nH]n(-c2ccccc2)c1=O | · | -0.94
CC1CCCCN1C(=O)CSc1nnc(-c2ccncc2)o1 (stereo not drawn) | 1.6 | -1.7
CCN(CC)S(=O)(=O)c1ccc(-c2cn3ccccc3n2)cc1 | 1.1 | 0.28
Clc1cc(Cl)cc(C=NCc2ccccc2)c1 | · | 0.49
CN1CCN(CCCNc2nn3nnnc3c3ccccc23)CC1 | 0.81 | -0.99
O=C(c1noc2c1CCc1sccc1-2)N1CCCCC1 | 0.86 | ·
O=S(=O)(c1ccccc1)n1nc(-c2ccco2)nc1NCc1ccccc1Cl | 1.8 | -1.6
O=C(Nc1cccnc1)c1cc(-c2ccc(Cl)cc2)on1 | · | -1
COC(=O)CC1Oc2ccc(C)cc2-n2cc(-c3ccc(F)cc3)nc21 (stereo not drawn) | 0.72 | -0.66
Cc1cc(=O)n2nc(N3CCCC(C(=O)N4CCN(C)CC4)C3)sc2n1 (stereo not drawn) | 0.61 | -0.08
Cc1ccc(-c2onc(C)c2C)cc1S(=O)(=O)NC1CCN(Cc2ccccc2)CC1 | 0.81 | ·
Oc1cccc(-c2nc(-c3cccs3)c(-c3cccs3)[nH]2)c1 | -3.2 | 19*
O=C(c1ccc(N2CCCS2(=O)=O)cc1)N1CCC(N2CCCCC2)CC1 | 1.6 | ·
CCOCCCNC(=O)CCc1c(C)nc2c(c(C)nn2C(C)(C)C)c1C | 0.24 | -1.2
Cc1ccc2oc(=O)c3cc(C(=O)N(Cc4ccco4)C4CCCC4)sc3c2c1 | · | -0.07
Cc1nn(-c2nc3ccccc3s2)c2c1C(c1ccc(Br)cc1)CC(=O)N2 (stereo not drawn) | -1.4 | -2.7
Cc1nc2c(c(SCC(=O)O)n1)CCC2 | -0.36 | -1.5
O=C1CCCc2cc(S(=O)(=O)Nc3ccc(F)c(F)c3)ccc2N1 | -0.15 | ·
Cc1ccc(CC2CC(=O)N(CC(=O)O)C2=O)cc1 (stereo not drawn) | 0.48 | -1.8
CC(=O)NC(c1cccs1)c1cc(Cl)c2cccnc2c1O (stereo not drawn) | · | -1.4
Cc1ccc(-c2noc(CCc3ccccc3)n2)cc1 | 0.64 | -0.22
O=C(Nc1ccccc1Cl)N1CCCC1c1cccs1 (stereo not drawn) | 2.8 | 0.02
O=C(Cn1nc(-c2ccc3c(c2)OCCO3)ccc1=O)NC1CCCc2ccccc21 (stereo not drawn) | 0.87 | 0.57

Other records follow.
smiles | TAR Tat displ | CDC25B-CDK2 inh
Cc1cnc(NS(=O)(=O)c2cn(C)cn2)c(Br)c1 | · | 0.09
Cc1ccc(S(=O)(=O)NC(=O)N2CCN(Cc3ccccc3)CC2)cc1 | · | -0.91
CC(=O)c1ccc(Oc2cccc(Cl)c2C#N)cc1 | · | -3.8
CC1CCCN(CCCNS(=O)(=O)c2ccc(-c3ccc(=O)[nH]n3)o2)C1 (stereo not drawn) | -0.05 | ·
NC(Cc1ccc(Cl)cc1)C(=O)O (stereo not drawn) | -0.51 | -2
CCCCCC(=O)N1c2ccccc2NC2=C(C(=O)CCC2)C1c1ccco1 (stereo not drawn) | 2.8 | ·
O=S(=O)(CCSc1ccc(Cl)cc1)CCSc1ccc(Cl)cc1 | · | 2.8
CN1C(C(=O)NCC2CCCO2)=CC(c2ccc3c(c2)OCO3)=NS1(=O)=O (stereo not drawn) | 2.7 | -2.5
N#C/C(=C\Nc1cc(C(F)(F)F)cc(C(F)(F)F)c1)S(=O)(=O)c1ccc(Cl)cc1 | · | -1.1
CCN1CCCC1CNC(=O)Cn1nc(C)c2nn(-c3ccc(Cl)cc3)c(-n3cccc3)c2c1=O (stereo not drawn) | 0.63 | ·
Cc1ccc2nc(-c3ccncc3)c(NC3CCCCC3)n2c1 | 0.25 | -3.8
COc1ccc(NS(=O)(=O)c2ccc3c(c2)[C@H]2C=CC[C@H]2[C@@H](c2ccc(F)cc2)N3)cc1 | · | -1.4
NS(=O)(=O)c1ccc(CNS(=O)(=O)c2ccc(-c3ccccn3)s2)cc1 | · | -1.3
Cc1ccccc1Cn1c(-c2cccs2)noc1=O | 2.4 | -1.1
Nc1ncc(-c2nc3ccccc3s2)c(N)n1 | · | -1.9
O/N=C/c1cc2c(cc1Br)OCO2 | · | -1.3
CCOc1ccc(/C(O)=C2\C(=O)C(=O)N(c3nnc(C)s3)C2c2ccc(C(C)C)cc2)cc1 (stereo not drawn) | -2.1 | 2.7
O=C(COc1ccc(Cl)cc1)CC(=O)c1ccc(Cl)cc1 | -0.34 | -0.82
